Screens from PubChem BioAssay.
NPYLR7 agonist: mosquito NPYLR7 agonism | HEK293T NPYLR7/Galpha15, GCaMP6s calcium fluorescence | activation, % at 10 µM | actives 0.15% (n = 270,000) | AID 1259423; in the data active = activation above about 40%;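 note: 0% = vehicle and 100% = reference agonist at the receptor; some compounds past the cut are filed as inactive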
NPYLR7 agonist max-min: recorded beside NPYLR7 agonist, whose call it bears; activation, %; measured here: Max-Min RFU normalised activation; some inactives read as strong as hits;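 span of the calcium signal over five minutes; 0% = vehicle and 100% = native peptide agonist; compound fluorescence can raise it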
* = called active by the depositor; & = joins results of further samples.

Below each SMILES: NPYLR7 agonist max-min, NPYLR7 agonist
CCOC(=O)C1CCCN(CC2=CCC3CC2C3(C)C)C1 (stereo unspecified)
    0, 0
COc1ccc(-c2ccccc2NC(=O)C2CCCN(Cc3ccc(C)s3)C2)cc1 (stereo unspecified)
    2&-5, 8&0
CC1(C)C[C@@H]2C[C@@](C)(CN2c2nncc(-c3ccccc3)n2)C1
    -3, 1
CC(C)c1ccc(C2C(C(=O)c3ccco3)=C(O)C(=O)N2CCN2CCOCC2)cc1 (stereo unspecified)
    -4, -4
CCOc1ccccc1-c1cc(-c2nnc(SCc3cccc(Br)c3)n2C)c2ccc(Oc3ccccc3)cc2n1
    -9, -5
Cc1cnc(C)c(Oc2ccccc2CN2CCN(C)CC2)n1
    6, 7
Cc1c(C#N)c(NC(=O)CSc2nncs2)n(-c2ccccc2)c1C
    2, 6
COC(=O)[C@@H]1C[C@@H](N(C)C)CN1C(=O)c1cn2cccc(C)c2n1
    1, 0
Cc1cccc(N2C(=O)CSC2c2cccnc2)c1 (stereo unspecified)
    -8, -7
CC1(C(=O)NS(=O)(=O)c2cccc(C#N)c2)CCN1C(=O)c1ccccc1CCc1ccccc1 (stereo unspecified)
    0, 3
COCCN(Cc1ccc(OC)c(OS(C)(=O)=O)c1)C(=O)C(c1ccccc1)c1ccccc1
    5, -4
Cc1nc2nc(-c3cccc(Cl)c3)cc(C(=O)O)c2[nH]1
    -3, -2
Cc1ccccc1CN1C2=NCCN2C(=O)C2=C1CCN(Cc1ccccc1)C2
    4, 7
CCc1nnc(NC(=O)CSc2nnc(NC(=O)c3ccccc3C(F)(F)F)s2)s1
    -13, -5
COCCCNC(=O)C(NC(=O)c1ccccc1C)C1CCN(C(=O)c2cccc(Br)c2)CC1 (stereo unspecified)
    24, 19
COCCNc1nc(NCc2cnc(C)cn2)c2sccc2n1
    3, 7
O=C(COCc1ccccc1)N1CCOC(Cc2ccccc2)C1 (stereo unspecified)
    29, 18
CN(C)CCn1c2c(c(SCC(=O)Nc3cccc4ccccc34)nc1=O)CCCC2
    -1, -2
Cc1nc(CN(C)C(=O)c2cc(C)sc2NC(=O)C(C)(C)C)no1
    -2, 1
CC(=O)c1ccc(N2CCOCC2)c(-c2cc(N)nc3[nH]ccc23)c1
    1, 2
Cc1ccc(C(=O)Nc2ccc(Br)cc2)cc1S(N)(=O)=O
    -10, -7
COc1ccc(NC(=O)CCC2CCCN(S(=O)(=O)N(C)C)C2)c(C)c1 (stereo unspecified)
    11, 18
COc1ccccc1N1C(=O)CSC1c1cccc(NC(=O)C(C)(C)C)c1 (stereo unspecified)
    6, -2
Cn1nnc2cc(C(=O)N3CCCC(CCc4cccc(F)c4)C3)cnc21 (stereo unspecified)
    4, 8
O=S(=O)(c1cc(F)ccc1N[C@@H]1c2ccccc2C[C@@H]1O)C(F)(F)F
    5, 7
CCOC(=O)c1nn(CC2CC2)c2c1CN(Cc1cn(C)nc1C)CC2
    1, 15
O=C(NCCN1C(=O)SC(=Cc2ccc(OC(F)F)cc2)C1=O)c1ccncc1
    -7, -3
CC1(C(=O)Nc2ccc3c(c2)OCCO3)CCN1C(=O)c1cccc(F)c1 (stereo unspecified)
    -1, 2
C=Cc1ccc(Cn2c(C)c(C(=O)NCc3ccc(Cl)c(Cl)c3)sc2=O)cc1
    -8, -6
Cn1c(O)c(C2=c3ccccc3=NC2=O)sc1=S
    9, 2
Cc1cn2c(=O)c(C(=O)Nc3ccncc3)cnc2s1
    -1, 3
COCCN(CC(=O)N(CCc1ccc(OC)c(OC)c1)Cc1ccco1)C(=O)c1cccc(Br)c1
    -11, -5
CC1c2cc(O)c(O)cc2CCN1C(=O)C1=C(C(=O)O)CCC1 (stereo unspecified)
    -9, -5
O=S(=O)(c1cccc2nsnc12)N1CCN(C2CCCCC2)CC1
    8, 15
C=CCc1cccc2cc(C(=O)Nc3ccc(S(N)(=O)=O)cc3)c(=O)oc12
    -20, -13
O=C(O)c1ccc(N=Nc2c(-c3ccc([N+](=O)[O-])cc3)[nH]n(-c3ccccc3)c2=O)cc1
    -4, -3
COc1ccc(Cl)cc1NC(=O)c1cc2nc(-c3ccco3)cc(C(F)(F)F)n2n1
    23, 23
CC1(C(=O)NS(=O)(=O)c2ccc(Cl)cc2)CCN1C(=O)C1(c2ccccc2)CCCC1 (stereo unspecified)
    1, 7
CCC(=O)Oc1c(C(=O)CC)cc2c(C)cc(=O)oc2c1C
    -3, 0
CCCc1nc(C)c(C(=O)NNC(=O)C2CCS(=O)(=O)C2)s1 (stereo unspecified)
    0&8, 6&11
Cc1cc(OC(=O)c2ccccc2C)c([N+](=O)[O-])c(=O)[nH]1
    1, 2
COc1ccc(C(=O)NCCCNC(=O)[C@H]2CCCN2)cc1
    7, -2
Cn1cnnc1SCC(=O)Nc1nc(-c2ccc(F)cc2)cs1
    3, -7
COCc1cc(C)nc(OCC(=O)N/N=C\c2c[nH]c3ccccc23)c1C#N
    -23, -15
CCc1ccc(S(=O)(=O)C2CS(=O)(=O)CC2N2CCC(C(N)=O)CC2)cc1 (stereo unspecified)
    -8, -5
Cn1nc(-c2cccc(NC(=O)c3cccc4ccccc34)c2)ccc1=O
    -1, -1
C=CCCC(C)(O)C#CCN1CCOCC1 (stereo unspecified)
    2, 3
COc1ccccc1CN(Cc1cccnc1)Cc1sccc1C
    0, 0
CN(Cc1cccc(F)c1)C(=O)C1CCN(C(=O)Nc2ccccc2)CC1
    -3, -1
CCn1nnc2c(Nc3ccccc3)ncnc21
    5, -3

Continued; it opens with the seven that closed the last part.
Below each SMILES: NPYLR7 agonist max-min, NPYLR7 agonist
COCc1cc(C)nc(OCC(=O)N/N=C\c2c[nH]c3ccccc23)c1C#N
    -23, -15
CCc1ccc(S(=O)(=O)C2CS(=O)(=O)CC2N2CCC(C(N)=O)CC2)cc1 (stereo unspecified)
    -8, -5
Cn1nc(-c2cccc(NC(=O)c3cccc4ccccc34)c2)ccc1=O
    -1, -1
C=CCCC(C)(O)C#CCN1CCOCC1 (stereo unspecified)
    2, 3
COc1ccccc1CN(Cc1cccnc1)Cc1sccc1C
    0, 0
CN(Cc1cccc(F)c1)C(=O)C1CCN(C(=O)Nc2ccccc2)CC1
    -3, -1
CCn1nnc2c(Nc3ccccc3)ncnc21
    5, -3
COc1ccccc1-c1cc(C(=O)NC2CCCCNC2=O)nc2cc(C(C)(C)C)nn12 (stereo unspecified)
    21, 20
CN1C(=O)NC(=O)C12CCCC2
    -2, 2
CN(C(=O)CS(=O)(=O)CC(=O)Nc1cccc(Br)c1)c1ccccc1
    2, 9
OC[C@H]1O[C@@H](c2nc(-c3nc(-c4ccc(Br)cc4)no3)cs2)[C@H](O)[C@@H]1O
    7, 11
Cc1ccccc1NC(=O)c1cccnc1Nc1cccc(Cl)c1
    -10, -5
CCCCn1ncc2c1NC(=O)CC2c1ccc(OCC(N)=O)c(Cl)c1 (stereo unspecified)
    -10, -2
O=C1CCCN1C(=O)CSc1nc2sc3c(c2c(=O)n1Cc1ccccc1)CCCC3
    3, -3
Cc1nc(C(C)NC(=O)c2ccccc2-c2ccccc2)n[nH]1 (stereo unspecified)
    6, 17
COc1ccc(C(=O)COc2ccc(N3C(=O)C4CCC(C)CC4C3=O)cc2)cc1 (stereo unspecified)
    -2, 0
O=C(Nc1ccc(Oc2ccccc2F)cc1)C1CCN(C(=O)C2CCCCO2)CC1 (stereo unspecified)
    0&-1, 2&1
CN(C)c1ncccc1CNC(=O)CN1CCOc2ccccc2C1
    2, 13
CN(Cc1cn(-c2ccccc2)nc1-c1ccccc1)C(=O)c1n[nH]c(=O)[nH]1
    -4, -4
C=CCCC(O)CNCc1nc(-c2ccc([N+](=O)[O-])cc2)no1 (stereo unspecified)
    18, 13
CN(CCNC(=O)C(F)(F)F)C(=O)c1cc(F)c(N2CCCC(Cn3cccc3)C2)cc1F (stereo unspecified)
    5, 6
COCCn1c(=NC(=O)CSCC(=O)Nc2nccs2)sc2ccccc21
    4, 9
CCC1CN(CC(=O)NC(CCn2ccnc2)c2ccccc2)Cc2cc(OC)ccc2O1 (stereo unspecified)
    1, 17
CN(C)c1ccc(C=Cc2nc3cc4c(cc3s2)OCO4)cc1
    3, 5
COc1cccc(-c2cc(C(=O)NC(c3ccccc3)c3ccccc3)n3nc(C(C)(C)C)cc3n2)c1
    0, -2
Ic1ccc(Nc2nc(NCCN3CCOCC3)nc(N3CCOCC3)n2)cc1
    11, 17
O=C1NC(=O)C(c2ccccn2)(C2CCNCC2)N1 (stereo unspecified)
    -1, -1
Clc1ccc(-c2nc(-c3cccnc3)no2)cc1
    9&17, 11&23
CC(O)(c1cccnc1)c1nc(-c2cccc(C(F)(F)F)c2)cs1 (stereo unspecified)
    3, 6
COc1cc2c(cc1-c1coc3c4c(c(OC)cc3c1=O)OC(C)(C)C=C4)OCO2
    -6, 0
Cc1cc(NC(=O)C(C)n2nnc(-c3cccc(C(F)(F)F)c3)n2)no1 (stereo unspecified)
    -7, -7
Cc1nc(CC2CCN(c3nccc(CCC(F)(F)F)n3)CC2)no1
    4, 6
Cc1nnc(S(=O)C(C)c2ccccc2)n1C1CC1 (stereo unspecified)
    -4, 0
Cc1ccc(Cc2nsc(N(CCC(=O)N3CCN(c4ccc([N+](=O)[O-])cc4)CC3)Cc3ccco3)n2)cc1
    26, 30
CC(C)CNC(=O)c1c(-c2ccccc2)c(-c2ccccc2)nn(C)c1=O
    40, -2
CCOC(=O)C1(Cc2cccc(OC)c2)CCN(C/C=C/c2ccc(OC)cc2)CC1
    4&-12, 11&-5
CCCCNc1oc(-c2ccc(COc3ccc(C)cc3)o2)nc1C#N
    19, 1
Cc1ccc(C(CNC(=O)c2cc(C(C)C)nn2C)N(C)C)o1 (stereo unspecified)
    -4, 0
COc1ccc(C(=O)N2CCC(Nc3ccccc3)CC2)c(OC)c1OC
    -7, -4
Cc1ccccc1C(C)NS(=O)(=O)N1CCCCCC1 (stereo unspecified)
    -2, 3
O=C(CSc1nnc(-c2ccc3c(c2)OCO3)n1-c1ccccc1)c1ccc(N2CCCC2=O)cc1
    9, 3
CCn1c(=O)c(C)nc2cc(C(=O)Nc3nc4c(s3)CCC4)ccc21
    0, 1
Cc1cc(=O)[nH]c(-n2nc(C3CC3)cc2NC(=O)c2ccccc2)n1
    1, 2
COC(=O)C1Cc2ccccc2N1C(=O)c1cc(=O)[nH]c2ccccc12 (stereo unspecified)
    -6, -2
Cc1ccc(C(=O)Nc2c(C)nc3c(C)cccn3c2=O)cc1C
    -2, -2
O=[N+]([O-])c1cc2c(cc1C=NNc1ccccn1)OCO2
    0, 2
COCC(=O)Nc1ccc(N(C)C)c(CN(CC2CCCO2)C(=O)C2CC2)c1 (stereo unspecified)
    1, -3
CCCC(=O)NC1=C(C#N)C2(CCCC2)Cc2ccccc21
    -5, -2
O=C1CCCCC1SCc1ccco1 (stereo unspecified)
    3, 14
COc1ccc(-n2ccnc2-c2ccccc2)cc1CO
    1, 3
O=C(Cc1cccc(N(Cc2ccccc2)C(=O)C2CC2)c1)N1CCOCC1
    3, 3
COc1ccccc1NC(=O)N(CC(=O)N(Cc1ccccc1)Cc1ccc(C)s1)C1CCCCC1
    3, -2
CCOC(=O)c1sc(N=NC2=C(O)CCCC2=O)c(C(=O)OCC)c1C
    0, 3
COc1ccc(C(=O)Oc2coc(CSc3nccn3C)cc2=O)cc1OC
    5, 12
c1coc(-c2nnc(SCc3nc4ccccc4o3)n2C2CCCCC2)c1
    -2, 2
Clc1ccccc1-c1nnc(-c2ccccc2)o1
    5, 10
CC(=O)N[C@H]1C[C@@H](COCc2ccccc2)O[C@@H](Cc2ccccc2)C1
    6, 8

4 consecutive compounds from above, quoted:
Below each SMILES: NPYLR7 agonist max-min, NPYLR7 agonist
COc1ccccc1NC(=O)N(CC(=O)N(Cc1ccccc1)Cc1ccc(C)s1)C1CCCCC1
    3, -2
CCOC(=O)c1sc(N=NC2=C(O)CCCC2=O)c(C(=O)OCC)c1C
    0, 3
COc1ccc(C(=O)Oc2coc(CSc3nccn3C)cc2=O)cc1OC
    5, 12
c1coc(-c2nnc(SCc3nc4ccccc4o3)n2C2CCCCC2)c1
    -2, 2

Following part
Below each SMILES: NPYLR7 agonist max-min, NPYLR7 agonist
NC1(C(=O)O)CCN(Cc2cccn2-c2ccncc2)C1 (stereo unspecified)
    21, 2
CN(C(=O)NC1CC(=O)N(c2ccccc2)C1)C(C1CC1)C1CC1 (stereo unspecified)
    3, 5
O=C(CCCn1nnnc1CN1CCOCC1)N1CCN(c2ccccc2F)CC1
    -5, -1
CCCc1nc2sc3c(NCCO)ncnc3c2c2c1COC(C)(C)C2
    -2, -2
CC(=O)Nc1nc(C(=O)N2CC(C)CN(C)c3ccccc32)cs1 (stereo unspecified)
    -1, 0
Cc1ccc(S(=O)(=O)C2CS(=O)(=O)CC2O)cc1 (stereo unspecified)
    3, 3
O=C(CCC(=O)N1CCc2c([nH]c3ccccc23)C1)N1CCC(O)(Cc2ccccc2)CC1
    -16, -9
CCC(CC)c1nc(C(N)=O)c2[nH]c(=O)n(-c3ccc(OC)c(OC)c3)c2n1
    5, 13
CC(c1cccc(-c2ccc(C(=O)O)cc2Cl)c1)N(C)C (stereo unspecified)
    3, 4
Cc1cc(=O)n2nc(NC(C)C(=O)NCCC(C)C)sc2n1 (stereo unspecified)
    4, 7
CONC(=O)c1ccccc1NS(=O)(=O)c1ccc(F)cc1C
    0, 1
CC(C)C(NS(=O)(=O)c1ccc(C(C)(C)C)cc1)C(=O)Nc1nnc(-c2ccccc2)s1 (stereo unspecified)
    -7, -2
O=S(=O)(c1cc(C(F)(F)F)ccc1Cl)N1CCc2[nH]c3ccccc3c2C1
    10, 21
O=C(NCc1cccnc1-n1ccnc1)c1cnc2ccccn12
    11, 29
Cc1ccc(C(O)=C2C(=O)C(=O)N(CCCN(C)C)C2c2ccncc2)cc1 (stereo unspecified)
    -1, 0

The list is partial; rates above refer to the full screens.
